GLA inh pH 4.5 – qHTS Assay for Inhibitors of Human alpha-Galactosidase at pH 4.5. Alpha-galactosidase A (Homo sapiens), P06280. purified enzyme, 4-MU-alpha-Gal fluorescence, pH 4.5. activity change, negative = inhibition, % at 105 µM. 230,000 tested, under 10 active; inconclusive = small, poorly fitted or top-dose-only inhibition, or a rising curve; inactive = flat fitted curve, though single readings scatter; no compound was filed as active;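 also: 0% = full activity with enzyme and -100% = basal without enzyme; dose as in the result columns while the protocol names 77 µM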
Target sequence (P06280 whole entry, looked up): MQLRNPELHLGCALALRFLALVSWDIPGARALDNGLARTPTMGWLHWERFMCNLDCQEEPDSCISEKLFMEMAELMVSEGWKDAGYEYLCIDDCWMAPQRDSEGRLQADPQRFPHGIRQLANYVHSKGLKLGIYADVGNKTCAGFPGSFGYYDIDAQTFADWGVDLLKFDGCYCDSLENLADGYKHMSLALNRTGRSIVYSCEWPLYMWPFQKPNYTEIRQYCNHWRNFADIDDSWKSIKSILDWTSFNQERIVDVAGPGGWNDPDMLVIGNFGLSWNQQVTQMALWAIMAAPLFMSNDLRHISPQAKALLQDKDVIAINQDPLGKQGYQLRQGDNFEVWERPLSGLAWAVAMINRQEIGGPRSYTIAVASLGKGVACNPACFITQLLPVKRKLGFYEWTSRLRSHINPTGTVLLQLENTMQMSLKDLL
miR-21 reporter – qHTS Assay for Modulators of miRNAs and/orActivators of miR-21. HeLa miR-21 FLuc reporter, luciferase, 48 h. Potency, µM (titrated, usually from 38.3 µM), inactives show at the top dose reporter change, positive = more light. 340,000 tested, under 10 active; active = well fitted rising curve with a large enough effect; inconclusive = small, poorly fitted or top-dose-only effect; inactive = no such curve, though single readings can be large or run the other way;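 also: % of control where 0% means no effect; miR-21 action dims this reporter so a rising signal means less miR-21 action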
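HeLa cells endogenously expressing miR-21, stably carrying CMV-driven firefly luciferase with a downstream miR-21 binding site, 2000 cells/well. Titrations up to approximately 40 uM, 48 hours; luciferase luminescence read.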
Rango dissoc inh – qHTS Assay for Inhibitors of RanGTP induced Rango (Ran-regulated importin-beta cargo) - Importin beta complex dissociation. Snurportin-1 (Homo sapiens) + GTP-binding nuclear protein Ran (Homo sapiens) + Importin …. Biochemical FRET Rango-importin beta, RanGTP-induced dissociation. Potency, µM (top dose mostly 46.1 µM), for inactives: at the top dose activity change, negative = inhibition. actives 0.071% (n = 340,000). AID 540253, 2011; active means falling FRET ratio curve, often poorly fitted, with flat reads before Ran was added; inconclusive means other falling curves, or compound fluorescence or quenching; inactive means flat or rising ratio curve;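 also: potency is read from the fitted curve at half-maximal effect; % of control where 0% means no effect; nearly all actives have a fitted effect of over 45% in size; -100% = wells without RanGTP and RCC1; the record marks most hits as doubtful in a second field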
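Two FRET readings bracket the reaction: one 5 min after compound meets Rango–importin beta, another 45 min after RanGTP-RCC1 (0.6 uM Ran, 0.2 uM RCC1, 2 mM GTP) is added. Only the second defines inhibition.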
Rango complex inh – qHTS Assay for Inhibitors of Rango (Ran-regulated importin-beta cargo) - Importin beta complex formation; Importin subunit beta-1 (Homo sapiens), Q14974; Rango CFP/YFP FRET sensor + importin beta, 45 min; Potency, µM (series often up to 92.2 µM), without a hit: top-dose inhibition of complex formation; actives 0.031% (n = 340,000); active = rising FRET ratio curve, often small or poorly fitted; inconclusive = mostly compound fluorescence or quenching in the first reads; inactive = flat curves in all reads;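 also: potency is read from the fitted curve at half-maximal effect; 0% = DMSO wells and 100% = buffer wells lacking importin beta; nearly all actives have a fitted effect of over 15% in size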
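FRET biosensor Rango (snurportin 1 IBB between N-terminal EYFP and C-terminal Cerulean), 50 nM in PBS/1 mM DTT/0.02% Tween-20/0.1% BSA, preincubated 5 min RT with compound; 0.125 microM importin beta added, 45 min RT, CFP/YFP FRET ratio read.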
* hit, by the source's call; ? = inconclusive; . = not tested or not shown; & = joins results of further samples; [ ] = dose if it differs, or a comment.

Rango complex inh | GLA inh pH 4.5 | compound | miR-21 reporter | Rango dissoc inh
-1.8% | 5 | Cc1ccc(NCc2ccccc2)cc1 | -7% | 1%
-3.7% | . | CCC[C@@H]1Cc2ccccc2N1C(C)=O | . | 12%
-2.4% | -13 | Cc1nn(-c2ccc(F)cc2)c(N)c1C1(O)C(=O)Nc2ccccc21 (configuration not stated) | 2% | 0%
2.8% | . | COc1ccc(-c2csc(NC(C)c3nc4cc(C(F)(F)F)ccc4n3CCOCCO)n2)cc1 (configuration not stated) | . | -1%
1.4% | 2 | COc1ccc(-n2c(=O)[nH]c3cc(C(=O)NCCc4ccc(Cl)cc4)ccc3c2=O)cc1OC | 21%&21% | 3%
-0.5% | . | COc1ccc(C(C(=O)NC(C)(C)C)N(Cc2ccco2)C(=O)CCC(=O)Nc2ccccn2)cc1 (configuration not stated) | -4% | 21%
-4.3% | . | COc1ccc(S(=O)(=O)N2CCOCC2)cc1NC(=O)Cc1cccs1 | . | -18%
-0.3% | 2 | O=C(COc1ccccc1)NNC1=NS(=O)(=O)c2ccccc21 | 4% | 10%
0.6% | . | Cc1[nH]c(C)c(S(=O)(=O)NCCc2ccc(S(N)(=O)=O)cc2)c1C(=O)N1CCCC1 | 1% | -6%
-4.2% | -5 | Cc1ccc(C(=O)CSc2nnc(COc3cc(C)cc(C)c3)o2)cc1 | -1% | -5%
-1.3% | 6 | CCN1CCN(C(=O)C2CCN(S(=O)(=O)c3cccc4cccnc34)CC2)CC1 | -2% | -1%
-3.8% | -4 | CC(C(=O)Nc1ccccc1Cl)c1ccc([N+](=O)[O-])cc1 (configuration not stated) | 3% | 1%
-0.3% | . | CCOc1cc(C=O)ccc1OCCSc1ccc(C)cc1 | -7% | 2%
-2.6% | 5 | O=C(CNCC1(N2CCOCC2)CCCCC1)Nc1ccc(Cl)cc1 | -8% | 10%
0.2% | -2 | O=C(O)CC(CC(=O)O)(C(=O)O)c1ccccc1 | 7% | 3%
1.1% | -5 | Cc1ccc(C2C3=C(CCCC3=O)OC3=C2C(=O)CCC3)cc1 | -2% | 8%
-3.7% | 0 | COc1cc(NC(=O)c2cc(-c3cccs3)on2)cc(OC)c1OC | 13% | -3%
-2.1% | . | COc1ccc(CCNC(=O)c2ccccc2NS(=O)(=O)c2cc(C(=O)O)ccc2OC)cc1 | -2% | -4%
0.4% | 2 | Cc1nc2c(c(=O)n1CCC(C)C)c1nc3ccccc3nc1n2CC1CCCO1 (configuration not stated) | -2% | -12%
-0.5% | 5 | O=C(O)CC(c1ccc(Cl)cc1)N1C(=O)CCC1=O (configuration not stated) | -6% | 1%
2.6% | -3 | Cc1nn2c(=O)cc(CSc3nc4ccccc4[nH]3)nc2s1 | -9% | 6%
-2.2% | -1 | O=C(NNc1nc2cc3c(cc2s1)OCO3)c1ccccc1 | -65% | -5%
4.5% | 2 | COc1ccc(C2=NO[C@@H]3C(=O)N(c4ccc(C)cc4C)C(=O)[C@H]23)cc1OC | -3% | 12%
-0.5% | . | CC(C)[C@H](NC(=O)c1ccccc1)C(=O)NCCc1ccccc1 | -2% | -1%
0.6% | -2 | CCOC(=O)N1CCN(c2cc(=O)n(-c3cccc(C)c3)c(=O)[nH]2)CC1 | 4% | 0%
-2.2% | -4 | COc1ccc(S(=O)(=O)N(Cc2cc3ccc(OC)cc3[nH]c2=O)CC2COCCO2)cc1 (configuration not stated) | -6% | 0%
-6.2% | 23[21.1 µM] | COc1ccc(Nc2nc(-c3ccc(OC)cc3)cs2)cc1 | -39% | 3%
1.6% | -2 | COc1cccc(Nc2nc(C)cc(C)c2C#N)c1 | -18% | -2%
7.6% | 2&-2 | c1ccc(-c2ccc(CN3C[C@@H]4C(c5ccccc5)C5(c6ccccc6)CC4(C5)[C@H]3c3ccccc3)cc2)cc1 (some centres not stated) | 2% | 2%
0.4% | -6 | COc1ccc(/C=N/NC(=O)C[n+]2ccccc2)c(OC)c1 | 4% | 4%
4.0% | . | CC1NC(=S)N(Cc2ccccc2)C1=O (configuration not stated) | 8% | 5%
-1.5% | . | NC(=O)c1ccc(NC(=O)COC(=O)CCN=C2NS(=O)(=O)c3ccccc32)cc1 | . | 12%
2.9% | -13 | Cc1ccc(C(=O)c2c(NC(=O)c3ccncc3)sc3c2CCCC3)cc1 | -18% | 2%
-1.4% | . | O=c1[nH]nnc2cc(Cl)ccc12 | . | 0%
-0.1% | . | O=C(c1sccc1-c1ccccc1)N1CCN(S(=O)(=O)c2ccccc2)CC1 | -2% | -4%
1.0% | 3 | CCN(CC)S(=O)(=O)c1ccc(Oc2ccc(S(=O)(=O)N(CC)CC)cc2)cc1 | 29% | -10%
0.3% | -2 | CCOC(=O)c1ccc(NC(=O)C2CCCN(S(=O)(=O)c3cnc[nH]3)C2)cc1 (configuration not stated) | -9% | 10%
3.0% | -4 | COc1cc(/C=N\NC(=O)c2cccc(Cl)c2)ccc1Oc1ccc([N+](=O)[O-])cn1 | 12% | 5%
-2.4% | -14 | Cc1ccc2nc(SCC(=O)NCc3ccco3)c(C)cc2c1 | 0% | -13%
-3.2% | . | COCCn1c(SCC(=O)Nc2c(C)n(C)n(-c3ccccc3)c2=O)nc2ccccc2c1=O | . | -11%
0.2% | 0 | C/C(=N\Nc1nc(N2CCOCC2)nc(N2CCOCC2)n1)c1ccc([N+](=O)[O-])cc1 | 1% | -1%
4.0% | . | COc1ccccc1/C=C/C(=O)Nc1cccnc1 | -47% | 14%
0.9% | -4 | Cc1onc(-c2ccc(Cl)cc2Cl)c1-c1csc(N/N=C/c2ccccc2)n1 | 4% | -1%
? | 3 | CC(C)(C)NC(=O)Nc1ccc2nccnc2c1 | -30% | ?
3.5% | 3 | COc1ccccc1N1CCN(C(=O)c2cc3c(=O)n(C)c4ccccc4c3n2C)CC1 | -6% | 2%
-2.4% | 9 | COc1cccc(C(=O)N2c3ccccc3Sc3ccccc32)c1 | 14% | -1%
-2.5% | 4 | CC(C)CCn1c(SCC(=O)N2CC(=O)Nc3ccccc32)nc2scc(-c3cccs3)c2c1=O | 1% | 2%
0.9% | . | CCOc1ccc(S(=O)(=O)N2CCC(C(=O)NCC(=O)Nc3cccc(Cl)c3C)CC2)cc1 | . | 1%
8.3% | -11 | CN(C)/C=N/c1ncnc2c1cnn2-c1ccc(C(F)(F)F)cn1 | -47% | 9%
0.2% | . | Fc1ccc(OCCOCCN2CCNCC2)cc1 | -3% | -3%
2.7% | . | COC(=O)c1ccccc1-n1c(CCC(=O)O)ccc1-c1ccc(F)cc1 | 0% | -15%
0.0% | 4 | Nc1nnc(SCCN2C(=O)c3ccccc3S2(=O)=O)s1 | -6% | 5%
0.1% | -20 | CCCCCCCCCCCCCCCC[n+]1ccc(/C=N/O)cc1 | ? | -17%
1.5% | -1 | CCC(C)NS(=O)(=O)c1ccc(N)cc1 (configuration not stated) | 3% | -13%
1.2% | . | C[C@]1(O)CC(=O)C=C[C@H]1Nc1ccccc1 | . | -1%
2.1% | . | Cc1ccc(NC(=O)CCNS(=O)(=O)c2ccc3c(c2)CCC(=O)N3)cc1F | 1% | 15%
1.5% | . | Cn1cc(S(=O)(=O)N2CCc3ccccc32)cc1C(=O)NC1CCCCC1 | -3% | -5%
-5.4% | 0 | O=C(CSc1nnc(-c2cccs2)o1)c1cccs1 | -45% | 0%
0.3% | . | Cc1noc(C)c1C(=O)OCC(=O)/C=C1/N(C)c2ccccc2C1(C)C | . | -3%
0.3% | 2 | COc1cc(OC)c(OC)cc1CNc1cc(C)ccc1OC | 1% | 2%

Reformatted with bars between the fields: part of the list above
canonical_smiles | Rango complex inh | GLA inh pH 4.5 | miR-21 reporter | Rango dissoc inh
CCOc1ccc(S(=O)(=O)N2CCC(C(=O)NCC(=O)Nc3cccc(Cl)c3C)CC2)cc1 | 0.9% | . | . | 1%
CC1NC(=S)N(Cc2ccccc2)C1=O (configuration not stated) | 4.0% | . | 8% | 5%
Cc1ccc2nc(SCC(=O)NCc3ccco3)c(C)cc2c1 | -2.4% | -14 | 0% | -13%
COc1cc(OC)c(OC)cc1CNc1cc(C)ccc1OC | 0.3% | 2 | 1% | 2%
O=C(CSc1nnc(-c2cccs2)o1)c1cccs1 | -5.4% | 0 | -45% | 0%
C[C@]1(O)CC(=O)C=C[C@H]1Nc1ccccc1 | 1.2% | . | . | -1%

Carrying on:
Rango complex inh | GLA inh pH 4.5 | compound | miR-21 reporter | Rango dissoc inh
-4.0% | . | COc1cc(CC(=O)OCc2ccccc2F)cc(OC)c1OC | -3% | -4%
-0.1% | 3 | CC1(C)CC(C(N)=S)CCO1 (configuration not stated) | -3% | 1%
0.2% | 5 | Cc1cc(NC(=O)c2ccccc2)ncc1NC(=O)c1cccs1 | -53% | -5%
-0.8% | . | COc1ccc(OC)c(NC(=O)CSc2nc(N3CCOCC3)nc(N3CCOCC3)n2)c1 | -4% | ?
-3.9% | -1 | Cc1cc(S(=O)(=O)NC(C)C)ccc1OCC(=O)NCc1ccccc1 | -3% | 19%
-3.0% | . | O=C(O)Cn1c2ccccc2c2n[nH]c(=S)nc21 | 2% | 0%
0.3% | -6 | CC(=O)c1ccc(NC(=S)NCc2cccnc2)cc1 | -1% | -8%
0.3% | 7 | COc1ccc(C(=S)N2CCNCC2)cc1 | -1% | -11%
2.9% | . | Cc1cccc2cc(CN(CC3CCCO3)C(=O)c3cccs3)c(=O)[nH]c12 (configuration not stated) | -2% | 14%
-4.3% | 0 | O=C(O)CSc1nnc(-c2ccccc2Br)n1-c1cccc(C(F)(F)F)c1 | 0% | -5%
? | . | CC(=NNC(=O)c1ccncc1)c1ccccc1O | . | ?
? | . | COc1ccccc1NC(=O)C(C)OC(=O)CSCC(=O)Nc1ccc(C)cc1C (configuration not stated) | . | -6%
2.1% | . | Cc1cc(C(F)(F)F)nc(CCNC(=O)C2CCC(=O)N(Cc3cccc(F)c3)C2)n1 (configuration not stated) | -5% | -1%
-1.0% | . | CCCCN(C(=O)CC1CCCC1)c1c(N)n(CCC)c(=O)[nH]c1=O | . | -5%
-3.8% | -5 | CCCCCC(=O)NN=C1CCN(Cc2ccccc2)CC1 | -9% | -3%
3.1% | -7 | COc1ccccc1C1CC(=O)NC(SCC(=O)Nc2ccccc2)=C1C#N (configuration not stated) | -14% | -14%
-1.1% | 4 | COc1cc2c(cc1O)CCN(C(=O)c1ccco1)C2C (configuration not stated) | -11% | -4%
1.8% | . | Cc1c(S(=O)(=O)Nc2cccc3ccccc23)c(=O)n(C)c(=O)n1C | . | -5%
0.4% | 7 | CC(=O)Nc1ccc2c(c1)nc1n2CCN(C2CCCCC2)C1 | -55% | -18%
-4.2% | . | COc1cc(C(=O)NCC(c2ccco2)N2CCOCC2)cc(OC)c1OC (configuration not stated) | . | 9%
4.0% | . | CC[C@@H](NC(=O)Cn1cc(C)c(=O)[nH]c1=O)c1ccccc1 | . | 12%
-0.2% | -3 | Cc1occc1C(=O)NC(C)C1CCCO1 (configuration not stated) | -1% | -14%
-4.4% | . | COc1ccc(N2CCN(C(=O)c3ccc4[nH]c(C)c(C)c4c3)CC2)cc1 | -7% | -17%
0.1% | 1 | CCCn1cc([C@@H]2C[C@H]3CN(Cc4cccc(Cl)c4)C(=O)[C@]34CCCN24)c(C)n1 | -3% | -4%
-0.3% | 12 | CCc1ccccc1NC(=S)N(CCN(C)C)C(C)c1ccco1 (configuration not stated) | -2% | -2%
-1.3% | -7 | O=C1c2ccccc2C(=O)C12OC2c1ccc(Cl)cc1Cl (configuration not stated) | -5% | 1%
1.0% | 2 | COC(=O)CSc1[nH]c(=O)cc(C)c1C#N | -4% | 8%
1.8% | -1 | Cc1cccc(N2CCN(C(=O)Cn3sc4nc(C)cc(C)c4c3=O)CC2C)c1 (configuration not stated) | 27% | -6%
3.9% | . | COc1ccc(CNC(=O)CN(C(=O)CCC(=O)Nc2nccs2)c2ccc(C)cc2)cc1 | 0% | 0%
0.3% | -7 | Cc1nnc(SCc2ccc3c(c2)OCO3)s1 | -58% | -13%

Only part of the results is shown; count on the stated rates, not on these rows.
